Screening results: PubChem, National Center for Advancing Translational Sciences (NCATS)
Rango complex inh: prevents formation of the Rango-importin beta complex | Rango CFP/YFP FRET sensor + importin beta, 45 min | Potency, µM (series often up to 92.2 µM), for inactives: top-dose inhibition of complex formation | actives 0.031% (n = 340,000) | AID 540263 | Q14974; active = rising FRET ratio curve, often small or poorly fitted; inconclusive = mostly compound fluorescence or quenching in the first reads; inactive = flat curves in all reads;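 note: potency is the fitted concentration of half-maximal effect; 0% = DMSO wells and 100% = buffer wells lacking importin beta; nearly all actives have a fitted effect of over 15% in size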
Target sequence (Q14974 whole entry, looked up): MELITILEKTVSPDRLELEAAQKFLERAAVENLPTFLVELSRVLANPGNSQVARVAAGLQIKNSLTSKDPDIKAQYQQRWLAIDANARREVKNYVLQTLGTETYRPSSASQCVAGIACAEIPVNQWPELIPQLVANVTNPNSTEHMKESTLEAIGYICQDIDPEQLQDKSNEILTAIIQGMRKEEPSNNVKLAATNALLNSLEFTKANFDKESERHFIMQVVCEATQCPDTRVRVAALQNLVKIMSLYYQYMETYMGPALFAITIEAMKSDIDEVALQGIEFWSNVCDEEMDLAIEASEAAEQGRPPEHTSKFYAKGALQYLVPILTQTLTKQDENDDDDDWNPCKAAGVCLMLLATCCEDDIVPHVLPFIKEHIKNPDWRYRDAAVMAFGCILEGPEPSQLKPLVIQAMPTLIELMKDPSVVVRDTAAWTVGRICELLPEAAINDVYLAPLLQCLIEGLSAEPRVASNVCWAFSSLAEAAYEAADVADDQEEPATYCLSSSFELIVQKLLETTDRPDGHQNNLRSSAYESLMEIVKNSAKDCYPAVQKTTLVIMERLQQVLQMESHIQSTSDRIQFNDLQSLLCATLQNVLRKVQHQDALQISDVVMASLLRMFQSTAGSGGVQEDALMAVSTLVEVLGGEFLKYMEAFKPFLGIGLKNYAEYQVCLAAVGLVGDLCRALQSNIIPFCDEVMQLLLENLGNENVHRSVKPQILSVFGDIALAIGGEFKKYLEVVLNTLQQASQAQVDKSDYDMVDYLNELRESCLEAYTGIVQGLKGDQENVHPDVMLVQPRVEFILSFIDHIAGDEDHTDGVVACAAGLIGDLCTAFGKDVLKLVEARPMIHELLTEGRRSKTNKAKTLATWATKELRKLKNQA
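Inhibition scored from the CFP 486 nm/YFP 530 nm FRET ratio 45 min after adding 0.125 microM importin beta to 50 nM Rango biosensor preincubated 5 min with compound (room temperature, PBS with DTT, Tween-20, BSA). No-importin wells as positive control.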
GLA inh pH 4.5: inhibitors of human alpha-galactosidase A at pH 4.5; P06280; activity change, negative = inhibition, % at 105 µM; purified enzyme, 4-MU-alpha-Gal fluorescence, pH 4.5; 230,000 tested, under 10 active; inconclusive = small, poorly fitted or top-dose-only inhibition, or a rising curve; inactive = flat fitted curve, though single readings scatter; no compound was filed as active;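 note: 0% = full activity with enzyme and -100% = basal without enzyme; dose as in the result columns while the protocol names 77 µM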
Rango dissoc inh: inhibitors of RanGTP-induced Rango-importin beta complex dissociation; Biochemical FRET Rango-importin beta, RanGTP-induced dissociation; Potency, µM (top dose mostly 46.1 µM), without a hit: top-dose activity change, negative = inhibition; actives 0.071% (n = 340,000); active means falling FRET ratio curve, often poorly fitted, with flat reads before Ran was added; inconclusive means other falling curves, or compound fluorescence or quenching; inactive means flat or rising ratio curve;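 note: potency is the fitted concentration of half-maximal effect; % of control where 0% means no effect; nearly all actives have a fitted effect of over 45% in size; -100% = wells without RanGTP and RCC1; the record marks most hits as doubtful in a second field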
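Compounds preincubate 5 min with complex of recombinant Rango and importin beta in PBS with 1 mM DTT. Ran (0.6 uM) loaded with 2 mM GTP plus 0.2 uM RCC1 starts dissociation; FRET is recorded 45 min later.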
miR-21 FLuc: raises the signal of a miR-21 reporter | HeLa miR-21 FLuc reporter, luciferase, 48 h | Potency, µM (series often up to 38.3 µM), without a hit: top-dose reporter change, positive = more light | 340,000 tested, under 10 active; active = well fitted rising curve with a large enough effect; inconclusive = small, poorly fitted or top-dose-only effect; inactive = no such curve, though single readings can be large or run the other way;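 note: % of control where 0% means no effect; miR-21 action dims this reporter so a rising signal means less miR-21 action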
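Using DMEM plus 10% FBS, HeLa miR-21-FLuc cells are incubated with test compounds (final up to about 40uM) for 48 hours; firefly luciferase signal is then imaged following reagent-mediated lysis.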
Active calls of the source: *; ? = inconclusive; . = not tested or not shown; & = joins results of further samples. These rows are one share of the data; the hit share may differ from the screen's.

nr	Structure	Rango complex inh	GLA inh pH 4.5	Rango dissoc inh	miR-21 FLuc
1	COc1cc(C(=O)NC(C)Cc2ccccn2)ccc1OC1CCN(C(C)=O)CC1 (stereo not given)	-1.7%	.	0%	-6%
2	C/C=C/c1ccc(OCC(O)CNCCc2ccc(OC)cc2)c(OC)c1 (stereo not given)	-0.3%	.	-11%	-8%
3	CNC(=O)c1nc(C)n(-c2cc(Cl)ccc2Cl)n1	2.4%	-21	29%	-37%
4	CCOc1ccc(C(=O)N2CCN(c3ccccc3)CC2)cc1OCC	-0.1%	-8	1%	-8%
5	Cc1ccc2c(c1)N(CCC(=O)NCCCN1CCCC1)C(=O)C(C)O2 (stereo not given)	4.2%	.	0%	1%
6	O=C(NCCCCCCNC(=O)NCc1ccco1)NCc1ccco1	.	-2	.	0%
7	COc1cc(NS(=O)(=O)c2c(C)[nH]c(C)c2C(=O)N2CCCCC2)cc(OC)c1OC	5.1%	.	2%	-1%
8	Cc1cc(C)c(S(=O)(=O)NCc2cn3ccccc3n2)c(C)c1	1.2%	.	30%	2%
9	COc1ccc(/C(O)=C2\C(=O)C(=O)N(CCN(C)C)C2c2cccc(OC)c2OC)cc1Cl (stereo not given)	?	-15	-1%	-1%
10	Cc1nc2ccccn2c1C(=O)NC1CCCc2ccccc21 (stereo not given)	1.3%	4	-3%	14%
11	O=C(CCCC(=O)OCC(=O)NC1CCCC1)Nc1ccccn1	1.3%	-2	13%	-4%
12	O=C(O)c1cccc(CSc2nnc(-c3ccc(Cl)cc3)o2)c1	0.4%	.	5%	17%
13	CCN1C/C(=N\S(=O)(=O)/N=C2\CN(CC)C(=O)N2CC)N(CC)C1=O	0.1%	-11	21%	1%
14	Cc1ccccc1NC(=O)Cc1nc(CCl)cs1	-3.5%	-3	-11%	-8%
15	COc1cc(C(=O)NCc2ccc3c(c2)OCO3)ccc1OCc1c(C)noc1C	3.3%	-3	1%	-10%
16	CCCCOC(=O)Nc1ccc(C(=O)OC)cc1	-4.4%	5	-3%	-41%

Entries of single compounds as entered above:
CNC(=O)c1nc(C)n(-c2cc(Cl)ccc2Cl)n1 reads Rango complex inh = 2.4%; GLA inh pH 4.5 = -21; Rango dissoc inh = 29%; miR-21 FLuc = -37%
COc1ccc(/C(O)=C2\C(=O)C(=O)N(CCN(C)C)C2c2cccc(OC)c2OC)cc1Cl (stereo not given) reads Rango complex inh = ?; GLA inh pH 4.5 = -15; Rango dissoc inh = -1%; miR-21 FLuc = -1%

Continuation:
nr	Structure	Rango complex inh	GLA inh pH 4.5	Rango dissoc inh	miR-21 FLuc
17	Cc1ccc(-c2ccc(=O)n(CC(=O)NCCN(C)C)n2)cc1	0.3%	5	1%	-2%
18	COc1c2ccoc2nc2c(OC)c(OC[C@@H](O)C(C)(C)O)ccc12	-0.1%	.	11%	.
19	O=C(NCCCNC(=O)c1ccccn1)c1ccc(F)cc1	-1.7%	.	-10%	1%
20	COc1cc(/C=N/n2c(C)nc3ccccc3c2=O)cc(OC)c1O	-0.3%	.	-7%	-3%
21	Cc1ccccc1CN(c1ccc(C(=O)NCCC2=CCCCC2)cc1)S(C)(=O)=O	2.1%	4	-7%	-3%
22	O=C(NCCO)c1cccc2c1C(=O)c1ccccc1-2	-0.1%	5	0%	-15%
23	CCOc1ccc(/C=C(\C)C(=O)c2c(C)cc(C)[nH]c2=O)cc1	3.1%	.	17%	3%
24	CC(=O)Nc1ccc(Nc2cc(C)nc3ccccc23)cc1	2.0%	.	0%	.
25	CCn1c2ccccc2c2nnc(SCC(=O)Nc3ccc4c(c3)OCO4)nc21	0.3%	-2	-1%	-7%
26	O=S(CCc1ccncc1)Cc1ccccc1 (stereo not given)	4.5%	3	-7%	-5%
27	CC(NC(=S)NCCN1CCOCC1)C12CC3CC(CC(C3)C1)C2 (stereo not given)	3.0%	4	3%	-14%
28	COc1cccc(NC(=O)CN(C)C(C)C(=O)Nc2cc([N+](=O)[O-])ccc2Cl)c1 (stereo not given)	-2.4%	-26	9%	-1%
29	Cc1ccc(OCC(=O)N/N=C/c2ccncc2)cc1C	4.4%	-7	7%	1%
30	COC(=O)CCC(C)C1CCC2C3CCC4CC(O)CCC4(C)C3CC(O)C12C (stereo not given)	7.1%	.	-2%	.
31	O=C(COC(=O)c1ccccn1)Nc1ccc(S(=O)(=O)N2CCOCC2)cc1	-0.6%	2	1%	0%
32	C=CC(COCc1ccccc1)N(Cc1ccc(OC)cc1)S(=O)(=O)c1ccccc1Br (stereo not given)	-3.7%	-7	1%	-1%
33	CCN1C2=NCCCN2c2ccccc21	-1.1%	-1	-7%	-4%
34	COc1ccc(C2SCC(=O)N2CC23CC4CC(CC(C4)C2)C3)cc1 (stereo not given)	0.7%	1	11%	0%
35	C=C(C)c1cccc(C(C)(C)NC(=O)N2CCN(CC(N)=O)CC2)c1	-1.8%	-6	0%	-6%
36	COc1ccc(N2CC(NC(=O)NCCC(C)C)CC2=O)cc1 (stereo not given)	-4.3%	-7	-2%	-2%
37	Cc1cc(C)c2nc(NC3=NCN(CCN4CCOCC4)CN3)nc(C)c2c1	.	-17	.	-11%
38	COc1ccc(/C=N/NC(=O)CN2CCSCC2)c(OC)c1	-2.6%	3	-7%	-7%
39	Cc1ccccc1NC(=O)Cn1nnc2sc3c(c2c1=O)CC(C)(C)OC3	-0.2%	-4	3%	-2%
40	COc1ccc(N(C(=O)Cn2nnc(-c3ccc(F)cc3)n2)C(C)C(=O)NC2CCCC2)cc1 (stereo not given)	?	.	2%	0%
41	COc1ccc(/C=N/NC(=O)Cn2nnc3ccccc32)cc1OC	2.0%	4	1%	-16%
42	O=C(CNS(=O)(=O)c1cccs1)N1CCc2ccccc2C1	-0.7%	0	3%	-36%
43	COc1ccc(OCC(O)CN2CCN(CC(O)COc3ccc(OC)cc3)CC2)cc1 (stereo not given)	-0.4%	.	-3%	1%
44	CCOC(=O)Nc1ccc(C(=O)c2ccncc2)cc1	0.3%	.	-6%	2%
45	CCOC(=O)C(=O)Nc1cc(Cl)ccc1C	-2.2%	-4	-2%	2%
46	CN(C)S(=O)(=O)c1cccc(C(=O)Nc2cc(S(=O)(=O)N3CCOCC3)ccc2O)c1	-2.5%	.	7%	.
47	Cc1ccc(-c2nnn(Cc3nc4ccccc4s3)n2)cc1	3.5%	3	-10%	-6%
48	O=C(Nc1ccccc1Cl)c1cc(=O)c2ccccc2o1	0.4%	.	6%	-60%
49	COC(=O)Cn1c(C)nc2c(sc3nc(C)cc(C)c32)c1=O	0.0%	6	-18%	-57%
50	Cc1onc(-c2ccccc2Cl)c1C(=O)NCc1ccc(N2CCCC2=O)cc1	-0.7%	1	-6%	1%
51	CCn1ccnc1CNCc1ccc(OCC(O)CN(C)Cc2ccccc2)cc1 (stereo not given)	1.7%	-1	0%	-1%
52	COc1ccc2cc3c(N)nn(C(=O)Cc4ccccc4OC)c3nc2c1	-2.3%	?	2%	27%
53	O=C(CSc1ncn[nH]1)c1ccco1	-3.6%	3	-14%	-5%
54	CN(CC(=O)N1CCC(C(N)=O)CC1)S(=O)(=O)c1ccc2ccccc2c1	4.0%	.	-1%	-1%
55	CC(=O)CC(=O)Nc1ccc(Cl)cn1	-3.8%	10	0%	0%
56	Cn1cccc1/C=N/N1CCN(Cc2ccccc2)CC1	-0.1%	-7	1%	3%
57	Cc1cc(=O)c2ccc(Cl)cc2[nH]1	-0.6%	-11&-2	-2%	7%
58	C[C@H](CO)N1C[C@H](C)[C@@H](CN(C)Cc2ccc(C(=O)O)cc2)Oc2c(NS(=O)(=O)c3cn(C)cn3)cccc2C1=O	-2.9%	.	5%	.
59	CC(C)Cn1cnc2c(SCc3ccccc3F)nc(N)nc21	-0.1%	.	7%	.
60	COC(=O)c1sccc1NC(=O)c1cc(-c2ccc(C)cc2)nc2ccccc12	?	8	-2%	-5%
61	CCOc1ccc(N2CC(C(=O)Nc3nnc(SCCOC)s3)CC2=O)cc1 (stereo not given)	-2.4%	.	-10%	-1%
62	COc1ccccc1N1CCN(C2CCCCC2NS(=O)(=O)c2ccc(Cl)cc2)CC1 (stereo not given)	0.3%	.	0%	21%
63	Cc1cc(CN2CCCC(CNC(=O)c3ccc(F)cc3)C2)cc(C)c1O (stereo not given)	-4.7%	-1	2%	-8%
64	CC(C)(C)OC(=O)NCC(=O)N1CCC(C(=O)O)CC1	-4.2%	-7	1%	0%
65	O=C(CSc1nc2ccccc2s1)Nc1cc(C(=O)O)cc(C(=O)O)c1	5.4%	-1	10%	0%
66	CCOC(=O)c1ccc(CNCc2ccc(C)cc2)cc1	-1.3%	2	1%	-12%
67	CCN(CCCNC(=O)CC1Oc2ccc(C)cc2NC1=O)Cc1ccccc1 (stereo not given)	0.7%	-4	-4%	-7%
68	CC1=N/C(=C\c2ccc(OC(C)C)cc2)C(=O)N1c1ccc(C(=O)O)cc1	-0.2%	-4	30%	6%
69	COc1cc(C(=O)N2CCN(c3ccccc3)CC2)c2ccccc2n1	1.6%	.	-7%	.
70	CCc1ccc(NC(=O)C2=CC(c3ccc(OC)c(OC)c3)=NS(=O)(=O)N2C)cc1	?	.	-3%	27%
71	COc1cc(C(=O)NCC(c2cccnc2)N2CCN(c3ccccc3)CC2)cc(OC)c1OC (stereo not given)	-1.1%	3	-8%	-1%
72	O=C(NCCNc1ccc([N+](=O)[O-])cc1)c1cc(F)c(F)cc1Cl	5.3%	.	1%	.

(next part)
nr	Structure	Rango complex inh	GLA inh pH 4.5	Rango dissoc inh	miR-21 FLuc
73	COc1ccccc1N1CCN(C2CCCN(C(=O)c3oc(C)cc3C)C2)CC1 (stereo not given)	3.3%	.	-5%	-1%
74	CCc1c(O)nc(SC2CC(=O)N(c3ccc(F)c(Cl)c3)C2=O)[nH]c1=O (stereo not given)	2.9%	.	-5%	-2%
75	COc1ccc2[nH]cc(C(=O)NCCc3ccccc3)c(=O)c2c1	2.4%	.	17%	0%
76	CCN(CC(=O)Nc1ccc(NC(C)=O)cc1)C(=O)CCCOc1ccc(C(C)(C)C)cc1	-3.1%	.	-9%	.
77	O=c1[nH]c(/C(=N\O)c2ccccc2)no1	-5.2%	-9	20%	-3%
78	Nc1ccc(CCc2ccc(N)cc2)cc1	-3.1%	.	-14%	.
79	O=C(COc1ccc(S(=O)(=O)NC2CCCCC2)cc1)NC1CC1	-0.1%	.	5%	-7%
80	O=[N+]([O-])c1nn(-c2ccc(Cl)cc2)n(O)c1=NCc1ccccc1	1.7%	3	-8%	-37%
81	COc1cccc(C(=O)N(CN2CCCC2=O)c2cc(C)on2)c1	-1.1%	-4	-9%	1%
82	Cn1ncc([N+](=O)[O-])c1C(=O)Nc1ccc(-c2nc3ccccc3[nH]2)cc1	3.5%	-4	1%	-17%
83	COc1ccc(-c2nn(C)c(=O)c3ccccc23)cc1NC(=O)Cn1nc(-c2ccccc2)c2ccccc2c1=O	1.2%	-15	9%	-7%
84	COc1ccc(S(=O)(=O)Nc2ccc3c(c2)OCO3)cc1	0.6%	-4	?	-4%
85	CN(C)S(=O)(=O)Oc1cccc(C(=O)Nc2ccccc2Cl)c1	1.0%	-1	3%	-61%
86	CCc1cccc(OCCCCN(CC)CC)c1	0.4%	-2	3%	-4%
87	COc1ccc(S[C@@H](CCN2CC[C@H](NC(=O)OCc3ccccc3)CCC2=O)c2ccccc2)cc1	0.1%	.	14%	.
88	Cc1ccn2c(=O)c(C(=O)NCCCN3CCCCC3C)c(O)nc2c1 (stereo not given)	-0.6%	.	15%	1%&-2%
89	COc1cccc(CNC(=S)NC2CC2)c1	0.2%	2	-9%	-2%
90	CCCCCN1CC(=O)N2[C@@H](Cc3c([nH]c4ccccc34)C2(C)C)C1=O	?	.	14%	0%
91	N#Cc1ccc(CSc2nnc(NC(=O)C3CC(=O)N(c4ccc5c(c4)OCCO5)C3)s2)cc1 (stereo not given)	9.4%	2	13%	-4%
92	CCOC(=O)N/N=C\c1cccc(OC)c1OC/C=C/c1ccccc1	3.6%	.	4%	-1%
93	COc1ccc(CNC(=O)COc2ccc(Br)c(C)c2)cc1	0.3%	.	?	-4%
94	O=S(=O)(NCc1ccc(F)cc1)c1ccccc1Br	-3.9%	.	-7%	.
